Screening data as filed in PubChem.
total CFTR: total CFTR protein upregulators, primary screen, cell-based, HeLa F508del-CFTR, immunofluorescence, viability (AID 1224863); HeLa F508del-CFTR, immunofluorescence total CFTR, 24 h; by the record results were divided by relative cell number; some inactives read as strong as hits; calls, or highest fold increase where a dose series was run; 10,000 tested, 0.1% active; in the data nearly all actives have a first-pass fold increase above 1.5; a few of its hits are not listed in these tables;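 also: total CFTR protein by anti-CFTR immunofluorescence in fixed cells; first pass at 25 µM or 10 µg/mL by library and series up to twice that; 1 = untreated cells; first-pass hits also needed half or more of the cells alive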
total CFTR fold 25 µM: recorded beside total CFTR, whose call it bears; fold increase; measured here: primary screen single dose 25 uM; library dosed in µM
total CFTR viability 25 µM: further read-out of total CFTR, marked with its call; viability, %; measured here: primary viability 25 uM; library dosed in µM;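 0% = killed and 100% = untreated cells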
Starred values were filed as active, the others as inactive; i = inactive; & = joins results of further samples.

SMILES	total CFTR	total CFTR fold 25 µM	total CFTR viability 25 µM
CC(COc1ccccc1)NC(C)[C@H](O)c1ccc(O)cc1 (stereo partly drawn)	i	1.1	102
CCOc1ccccc1C(N)=O	i	1.1	95
Cc1nc2ccccn2c(=O)c1CCN1CCC(C(=O)c2ccc(F)cc2)CC1	i	1.2	116
Cn1c(=O)c2c(ncn2CC2OCCO2)n(C)c1=O	i	0.99&1.1	101&91
O=S(=O)(c1cccc2cnccc12)N1CCCNCC1	i	1.1&1.2	106&90
c1ccc(CC2=NCCN2)cc1	i	1.1	96
CC(=O)c1ccc2c(c1)N(CCCN(C)C)c1ccccc1S2	i	1.2	112
CN(C)[C@@H](CCOc1cccc2ccccc12)c1ccccc1	i	0.96	84
COc1ccc(C(=O)CC(=O)c2ccc(C(C)(C)C)cc2)cc1	i	1.1	90
Cn1c(=O)c2[nH]c(Br)nc2n(C)c1=O	i	0.96	100
CC[N+](C)(CC)CCOC(=O)C(O)(c1ccccc1)C1CCCCC1 (stereo not drawn)	i	1.2	88
CCCCC(O)c1ccccc1 (stereo not drawn)	i	1	95
CCC(C)n1ncn(-c2ccc(N3CCN(c4ccc(OCC5COC(Cn6cncn6)(c6ccc(Cl)cc6Cl)O5)cc4)CC3)cc2)c1=O (stereo not drawn)	i	0.97	90
COc1cc2c(cc1OC)C(=O)C(CC1CCN(Cc3ccccc3)CC1)C2 (stereo not drawn)	i	1.1&1.1&1.2	95&91&106
c1ccc(CN(CC2=NCCN2)c2ccccc2)cc1	i	0.96	90
COc1ccccc1N1CCN(CCCNc2cc(=O)n(C)c(=O)n2C)CC1	i	1.1	114
CC#CCn1c(N2CCC[C@@H](N)C2)nc2c1c(=O)n(Cc1nc(C)c3ccccc3n1)c(=O)n2C	i	1	92
CC(=O)[C@H]1CCC2C3C[C@H](C)C4=CC(=O)CC[C@]4(C)C3[C@@H](O)C[C@@]21C (stereo partly drawn)	i	0.88	82
O=C(c1ccc(F)cc1)C1CCN(CCn2c(=O)[nH]c3ccccc3c2=O)CC1	i	1.1&1.1	91&97
C[C@@H]1CC2C3C[C@H](F)C4=CC(=O)C=C[C@]4(C)[C@@]3(F)[C@@H](O)C[C@]2(C)[C@@]1(O)C(=O)COC(=O)C(C)(C)C (stereo partly drawn)	i	1.1	88
CCOC(=O)c1ccc(N)cc1	i	0.97	85
CN1CCOC(c2ccccc2)c2ccccc2C1 (stereo not drawn)	i	0.91	96
Cc1cc(CC(C)CC(C)(C)C)n(O)c(=O)c1 (stereo not drawn)	i	1.2	84
CN(C)CCOC(C)(c1ccccc1)c1ccccn1 (stereo not drawn)	i	1	90
CCN(CC)CCNC(=O)c1cc(Cl)c(N)cc1OC	i	1&1	108&86
Cc1c(NC(=O)c2cccnc2)c(=O)n(-c2ccccc2)n1C	i	1.1	89
OCCN1CCN(CCCN2c3ccccc3Sc3ccc(Cl)cc32)CC1	i	0.99	70
O=C(CCNNC(=O)c1ccncc1)NCc1ccccc1	i	1.1&1	87&99
COc1ccc(C(=O)NCc2ccc(OCCN(C)C)cc2)cc1OC	i	0.98&1	99&105
CC(=O)O[C@]1(C(C)=O)CCC2C3C=C(Cl)C4=CC(=O)[C@@H]5C[C@@H]5[C@]4(C)C3CC[C@@]21C (stereo partly drawn)	i	1.1	90
COc1ccc(/C=C/C(=O)Nc2ccccc2C(=O)O)cc1OC	i	1&1.1	102&81
C=CC1=C(C(=O)O)N2C(=O)[C@@H](NC(=O)/C(=N\O)c3csc(N)n3)[C@H]2SC1 (stereo in doubt)	i	1.2&0.96	92&108
CC12CCC(CC1)C(C)(C)O2	i	1	97
CC1COc2c(N3CCN(C)CC3)c(F)cc3c(=O)c(C(=O)O)cn1c23 (stereo not drawn)	i	0.94&1.1&1	80&105&112
CN1CCN(C(c2ccccc2)c2ccccc2)CC1	i	1.2	91
CC(=O)c1ccc(S(=O)(=O)NC(=O)NC2CCCCC2)cc1	i	1.1	114
CN(C(=O)CCCOc1ccc2[nH]c(=O)ccc2c1)C1CCCCC1	i	0.93	95
COCCCOc1cc(C[C@@H](C[C@H](N)[C@@H](O)C[C@H](C(=O)NCC(C)(C)C(N)=O)C(C)C)C(C)C)ccc1OC	i	1.1&0.92	82&98
CC(=O)Nc1ccc(C(=O)O)cc1	i	1.1	91
COc1ccc(-n2nc(CCC(=O)N(C)O)cc2-c2ccc(Cl)cc2)cc1	i	1.1	74
Cc1cc(-c2ccccc2)nnc1NCCN1CCOCC1	i	1.1	99
O=C(O)c1ccc[n+]([O-])c1	i	1.1	85
NC(=O)c1cn(Cc2c(F)cccc2F)nn1	i	1.1	84

Filtered by structure, the compounds so far with nitrogen in an aromatic ring.
SMILES	total CFTR	total CFTR fold 25 µM	total CFTR viability 25 µM
Cc1nc2ccccn2c(=O)c1CCN1CCC(C(=O)c2ccc(F)cc2)CC1	i	1.2	116
Cn1c(=O)c2c(ncn2CC2OCCO2)n(C)c1=O	i	0.99&1.1	101&91
O=S(=O)(c1cccc2cnccc12)N1CCCNCC1	i	1.1&1.2	106&90
Cn1c(=O)c2[nH]c(Br)nc2n(C)c1=O	i	0.96	100
CCC(C)n1ncn(-c2ccc(N3CCN(c4ccc(OCC5COC(Cn6cncn6)(c6ccc(Cl)cc6Cl)O5)cc4)CC3)cc2)c1=O (stereo not drawn)	i	0.97	90
COc1ccccc1N1CCN(CCCNc2cc(=O)n(C)c(=O)n2C)CC1	i	1.1	114
CC#CCn1c(N2CCC[C@@H](N)C2)nc2c1c(=O)n(Cc1nc(C)c3ccccc3n1)c(=O)n2C	i	1	92
O=C(c1ccc(F)cc1)C1CCN(CCn2c(=O)[nH]c3ccccc3c2=O)CC1	i	1.1&1.1	91&97
Cc1cc(CC(C)CC(C)(C)C)n(O)c(=O)c1 (stereo not drawn)	i	1.2	84
CN(C)CCOC(C)(c1ccccc1)c1ccccn1 (stereo not drawn)	i	1	90
Cc1c(NC(=O)c2cccnc2)c(=O)n(-c2ccccc2)n1C	i	1.1	89
O=C(CCNNC(=O)c1ccncc1)NCc1ccccc1	i	1.1&1	87&99
C=CC1=C(C(=O)O)N2C(=O)[C@@H](NC(=O)/C(=N\O)c3csc(N)n3)[C@H]2SC1 (stereo in doubt)	i	1.2&0.96	92&108
CC1COc2c(N3CCN(C)CC3)c(F)cc3c(=O)c(C(=O)O)cn1c23 (stereo not drawn)	i	0.94&1.1&1	80&105&112
CN(C(=O)CCCOc1ccc2[nH]c(=O)ccc2c1)C1CCCCC1	i	0.93	95
COc1ccc(-n2nc(CCC(=O)N(C)O)cc2-c2ccc(Cl)cc2)cc1	i	1.1	74
Cc1cc(-c2ccccc2)nnc1NCCN1CCOCC1	i	1.1	99
O=C(O)c1ccc[n+]([O-])c1	i	1.1	85
NC(=O)c1cn(Cc2c(F)cccc2F)nn1	i	1.1	84

Complete entries from above.
CN(C)CCOC(C)(c1ccccc1)c1ccccn1 (stereo not drawn) is entered as total CFTR: i; total CFTR fold 25 µM: 1; total CFTR viability 25 µM: 90
CN1CCN(C(c2ccccc2)c2ccccc2)CC1 is entered as total CFTR: i; total CFTR fold 25 µM: 1.2; total CFTR viability 25 µM: 91

Not all compounds are listed. The share of hits here may be higher or lower than overall.
